# Screening data from PubChem BioAssay.
# BoNT-A LC inh2 = BoNT/A light chain protease inhibitors, primary screen, biochemical, flow cytometry, MLPCN library; AID 588499, 2011; actives 0.17% (n = 360,000); inhibition, % at 10 µM; multiplex microsphere protease substrate cleavage; in the data active = inhibition above about 30%; inconclusive = no clear call, values can overlap the other calls; note: plate controls were buffer without enzyme for full effect and enzyme alone for no effect
# PfHsp40 rescue = rescue of yeast from PfHsp40 toxicity, primary screen, S. cerevisiae, ATP luminescence; S. cerevisiae expressing PfHsp40, growth rescue; growth rescue, % at 12.5 µM; actives 0.68% (n = 340,000); in the data active = growth rescue above about 28%, passing the limit was not always enough; inconclusive = no clear call, values can overlap the other calls;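 note: yeast W303a lacking pdr1 and pdr3 grown in galactose medium; growth measured after three days at 30 °C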
# TcdB GH inh = TcdB glycohydrolase inhibitors, primary screen, biochemical, single point, plate reader; Toxin B (Clostridioides difficile), P18177; TcdB glycohydrolase enzymatic assay; inhibition, % at 9.99 µM; actives 0.24% (n = 350,000); AID 652162, 2013; in the data active = inhibition above about 10%
# Target sequence (P18177 whole entry, looked up): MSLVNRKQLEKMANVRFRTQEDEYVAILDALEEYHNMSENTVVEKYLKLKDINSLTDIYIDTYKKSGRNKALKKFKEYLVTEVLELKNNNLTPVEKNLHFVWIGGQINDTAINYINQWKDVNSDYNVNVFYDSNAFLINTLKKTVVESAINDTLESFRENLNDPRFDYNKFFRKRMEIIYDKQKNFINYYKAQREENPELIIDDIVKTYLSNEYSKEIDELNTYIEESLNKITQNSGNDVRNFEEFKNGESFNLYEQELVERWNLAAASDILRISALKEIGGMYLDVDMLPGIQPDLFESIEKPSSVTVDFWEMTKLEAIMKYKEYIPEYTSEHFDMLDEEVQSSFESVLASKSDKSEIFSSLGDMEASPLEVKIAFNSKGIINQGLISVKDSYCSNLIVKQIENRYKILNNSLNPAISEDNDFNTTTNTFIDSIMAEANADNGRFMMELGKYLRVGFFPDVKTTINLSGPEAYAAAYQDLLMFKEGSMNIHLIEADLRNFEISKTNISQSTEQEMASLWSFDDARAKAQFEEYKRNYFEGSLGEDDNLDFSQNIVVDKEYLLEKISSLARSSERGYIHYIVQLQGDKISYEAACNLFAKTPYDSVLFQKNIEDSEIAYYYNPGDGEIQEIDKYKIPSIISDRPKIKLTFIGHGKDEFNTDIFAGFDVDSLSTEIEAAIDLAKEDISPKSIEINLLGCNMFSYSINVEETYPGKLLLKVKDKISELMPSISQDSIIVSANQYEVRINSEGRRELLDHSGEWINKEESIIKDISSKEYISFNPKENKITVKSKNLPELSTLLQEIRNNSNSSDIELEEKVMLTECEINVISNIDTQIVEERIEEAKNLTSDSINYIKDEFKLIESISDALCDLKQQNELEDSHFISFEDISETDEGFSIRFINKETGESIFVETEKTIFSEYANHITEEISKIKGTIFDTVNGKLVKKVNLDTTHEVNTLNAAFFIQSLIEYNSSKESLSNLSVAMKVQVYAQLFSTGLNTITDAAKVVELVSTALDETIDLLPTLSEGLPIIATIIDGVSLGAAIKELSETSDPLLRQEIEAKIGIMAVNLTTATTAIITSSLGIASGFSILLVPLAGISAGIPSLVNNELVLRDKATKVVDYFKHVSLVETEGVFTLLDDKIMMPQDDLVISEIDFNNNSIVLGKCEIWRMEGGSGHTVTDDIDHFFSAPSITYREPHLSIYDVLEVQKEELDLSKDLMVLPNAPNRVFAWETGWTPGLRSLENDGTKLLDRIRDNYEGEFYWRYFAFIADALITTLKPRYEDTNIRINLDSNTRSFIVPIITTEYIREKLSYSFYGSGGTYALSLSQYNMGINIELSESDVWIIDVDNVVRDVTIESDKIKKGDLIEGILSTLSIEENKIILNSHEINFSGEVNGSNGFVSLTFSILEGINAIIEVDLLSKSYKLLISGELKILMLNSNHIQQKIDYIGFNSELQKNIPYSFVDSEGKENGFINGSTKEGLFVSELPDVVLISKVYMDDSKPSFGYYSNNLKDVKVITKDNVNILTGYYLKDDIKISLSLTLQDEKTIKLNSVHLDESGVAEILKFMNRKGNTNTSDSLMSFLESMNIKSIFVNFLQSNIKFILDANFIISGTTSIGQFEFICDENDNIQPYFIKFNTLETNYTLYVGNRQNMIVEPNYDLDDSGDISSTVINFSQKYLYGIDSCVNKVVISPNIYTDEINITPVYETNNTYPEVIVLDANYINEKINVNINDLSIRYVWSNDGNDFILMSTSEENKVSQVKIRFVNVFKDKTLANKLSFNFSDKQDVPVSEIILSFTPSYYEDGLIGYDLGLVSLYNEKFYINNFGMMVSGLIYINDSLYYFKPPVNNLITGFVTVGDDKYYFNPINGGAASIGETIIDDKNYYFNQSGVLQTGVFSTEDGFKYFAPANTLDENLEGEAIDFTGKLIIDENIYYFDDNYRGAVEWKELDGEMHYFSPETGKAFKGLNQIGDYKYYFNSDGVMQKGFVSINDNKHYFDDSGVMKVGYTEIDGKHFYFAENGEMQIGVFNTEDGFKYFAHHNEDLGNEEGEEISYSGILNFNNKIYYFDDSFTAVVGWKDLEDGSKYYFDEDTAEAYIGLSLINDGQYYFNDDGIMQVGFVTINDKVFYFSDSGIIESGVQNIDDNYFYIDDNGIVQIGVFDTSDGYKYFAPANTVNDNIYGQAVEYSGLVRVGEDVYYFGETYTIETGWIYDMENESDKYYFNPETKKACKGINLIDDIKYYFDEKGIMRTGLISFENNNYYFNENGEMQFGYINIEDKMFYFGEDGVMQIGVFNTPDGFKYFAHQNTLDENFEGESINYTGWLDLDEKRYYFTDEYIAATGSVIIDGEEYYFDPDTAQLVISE
# PrPC surface inh = inhibitors of human cell surface prion protein PrPC, primary screen, cell-based, TR-FRET | Major prion protein (Homo sapiens), P04156 | TR-FRET read-out | inhibition, % at 13.8 µM | actives 0.43% (n = 370,000) | AID 720596, 2013; in the data active = inhibition above about 24%; note: 0% = median of the test wells and 100% = reference compound wells
# Y pestis TopoI = Yersinia pestis topoisomerase I inhibitors, primary screen, biochemical, cleavage product accumulation, plate reader, single point; actives 0.064% (n = 360,000); DNA topoisomerase I (Yersinia pestis CO92); AID 504884, 2011; Y. pestis Topo-I cleavage product accumulation; activity, % at 10 µM; in the data active = activity above about 50%, passing the limit was not always enough; inconclusive = no clear call, values can overlap the other calls; note: inactives centre near 2
# BH1578 lux ind = inducers of Vibrio cholerae quorum light production without autoinducers, primary screen, BH1578 luxS cqsA deficient, single point; activation, % at 18.7 µM; V. cholerae BH1578 lux reporter, luminescence, 6 h; actives 0.16% (n = 350,000); AID 588436, 2011; in the data active = activation mostly above about 9.7%, no sharp cut-off; inconclusive = no clear call, values can overlap the other calls; inactive = mostly below about 3.7%; note: not every result past the cut was called active; inactives centre near 0; reference of the scale not given here
# SSB-PriA inh = inhibitors of Klebsiella pneumoniae PriA binding to SSB C-terminal tail, primary screen, biochemical, AlphaScreen; actives 0.6% (n = 430,000); AID 1272365, 2023; inhibition, % at 33 µM; AlphaScreen SSBct-PriA binding, biotinylated peptide; in the data active = inhibition mostly above about 37%, no sharp cut-off; inactive = mostly below about 20%;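 note: plate controls were negative control peptide for no effect and reference peptide for full effect; strong numbers were not always called active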
# * marks the source's active call; other numbers are inactive results; i = inactive; ? = inconclusive; . = not tested or not shown; & = joins results of further samples. This is a subset; rates above refer to the full screens.
1) O=C1O[C@@H]([C@H](O)CO)C(O)=C1O
2) CNCC[C@H](Oc1ccc(C(F)(F)F)cc1)c1ccccc1
3) O=C(O)COCCN1CCN(C(c2ccccc2)c2ccc(Cl)cc2)CC1 (centres undefined)
4) O=C(c1ccc(Cl)cc1)C1CCN(C(=O)c2ccc(F)cc2)CC1
5) O=C(NC(CO)C(O)c1ccc([N+](=O)[O-])cc1)C(Cl)Cl (centres undefined)
6) CC(=O)O[C@H]1CC[C@@]2(C)C(=CC[C@@H]3[C@@H]2CC[C@]2(C)C(=O)CC[C@@H]32)C1
7) O=C1O[C@H]([C@@H](O)CO)C(O)=C1O
8) Clc1cc(Cl)c(Cl)c(Cl)c1Cl

screen / no.	1	2	3	4	5	6	7	8
BoNT-A LC inh2	0.1	-0.4	0.3	1.6	-0.4	1.0	-0.2	0.2
PfHsp40 rescue	-2.0	0.2	-0.6	-1.3	-1.9	4.0	22	-0.8
TcdB GH inh	-27	2.7	.	0.3	1.6	.	-17	-0.3
PrPC surface inh	4	-9	-4	5	-4	.	-6	-3
Y pestis TopoI	1	3	8	2	2	3	-6	-2
BH1578 lux ind	2.4	i	i	0.1	-1.1	2.8	-1.1	1.7
SSB-PriA inh	.	-40	3	-7	-4	-12	-3	8

# In the list so far, 2 have fluorine:
2) CNCC[C@H](Oc1ccc(C(F)(F)F)cc1)c1ccccc1
4) O=C(c1ccc(Cl)cc1)C1CCN(C(=O)c2ccc(F)cc2)CC1

screen / no.	2	4
BoNT-A LC inh2	-0.4	1.6
PfHsp40 rescue	0.2	-1.3
TcdB GH inh	2.7	0.3
PrPC surface inh	-9	5
Y pestis TopoI	3	2
BH1578 lux ind	i	0.1
SSB-PriA inh	-40	-7

# Additional compounds.
9) CC(=O)c1ccc2c(c1)N(CCCN1CCC(CCO)CC1)c1ccccc1S2
10) Cc1cccc(N=Nc2ccc(N(C)C)cc2)c1
11) CN(C)c1ccc(O)c2c1CC1CC3C(N(C)C)C(=O)C(C(N)=O)=C(O)[C@@]3(O)C(=O)C1=C2O (some centres undefined)
12) CC(C)(O)C1C2OC(=O)C1C1(O)CC3OC34C(=O)OC2C14C (centres undefined)
13) O=S(=O)(c1ccc(O)cc1)c1ccc(O)cc1
14) COC(=O)Nc1sc(C)nc1-c1ccccc1
15) CCCC(C)CO (centres undefined)
16) Nc1c(-c2ccccc2)c(CN2CCOCC2)nn1-c1ccc(F)cc1

screen / no.	9	10	11	12	13	14	15	16
BoNT-A LC inh2	0.8	-1.1	-1.1	-0.5	-3.7	-0.1	-0.2	0.3
PfHsp40 rescue	-0.4	3.3	?	-0.5	-0.2	12	-1.7	-0.3
TcdB GH inh	1.4	-11	-3.2	0.9	0.1	-0.1	-1.6	1.8
PrPC surface inh	-12	6	-5	2	4	-4	-5	-6
Y pestis TopoI	5	-3	-13	2	3	-6	2	-5
BH1578 lux ind	i	-0.5	-0.7	0.2	23	-0.6	-0.4	i
SSB-PriA inh	3	55*	7	-3	-2	.	7	5

17) Nc1ccc(-c2ccccc2)cc1
18) CN1CCN(C2=Nc3ccccc3Oc3ccc(Cl)cc32)CC1
19) C/C=C(\C)C(=O)OC1[C@H](OC(C)=O)C2(CO)C(CC1(C)C)C1=CCC3C4(C)CCC(O[C@@H]5O[C@H](C(=O)O)[C@@H](O[C@@H]6O[C@H](CO)[C@@H](O)[C@H](O)[C@H]6O)[C@H](O)[C@H]5O[C@H]5O[C@H](CO)[C@@H](O)[C@H](O)[C@H]5O)[C@](C)(CO)C4CCC3(C)[C@]1(C)C[C@H]2O (some centres undefined)
20) Cc1ccc(C(=O)C2CCN(C(=O)c3ccc(C)cc3)CC2)cc1
21) C#CC1(O)CCC2C3CCC4=Cc5oncc5CC4(C)C3CCC21C (centres undefined)
22) C#C[C@]1(O)CCC2C3CCC4=Cc5oncc5CC4(C)C3CCC21C (some centres undefined)
23) COc1cc(C(=S)N2CCOCC2)cc(OC)c1OC
24) CCOC(=O)c1ccccc1N

screen / no.	17	18	19	20	21	22	23	24
BoNT-A LC inh2	-2.0	0.1	-0.4	0.6	-3.4	-0.9	-3.4	-0.5
PfHsp40 rescue	-0.7	-0.5	0.8	0.0	.	-1.1	20	0.5
TcdB GH inh	0.2	0.5	.	0.2	0.9	1.4	0.7	1.5
PrPC surface inh	6	3	.	9	-5	4	8	10
Y pestis TopoI	-4	11	21	8	-8	31	-3	5
BH1578 lux ind	i	i	-0.4	1.2	-0.4	-0.4	-0.2	-0.4
SSB-PriA inh	-7	13	-14	-15	.	-3	-5	1

# A second format for 11 compounds above:
# Order of values: BoNT-A LC inh2, PfHsp40 rescue, TcdB GH inh, PrPC surface inh, Y pestis TopoI, BH1578 lux ind, SSB-PriA inh
14	COC(=O)Nc1sc(C)nc1-c1ccccc1
    -0.1, 12, -0.1, -4, -6, -0.6, .
15	CCCC(C)CO (centres undefined)
    -0.2, -1.7, -1.6, -5, 2, -0.4, 7
16	Nc1c(-c2ccccc2)c(CN2CCOCC2)nn1-c1ccc(F)cc1
    0.3, -0.3, 1.8, -6, -5, i, 5
17	Nc1ccc(-c2ccccc2)cc1
    -2.0, -0.7, 0.2, 6, -4, i, -7
18	CN1CCN(C2=Nc3ccccc3Oc3ccc(Cl)cc32)CC1
    0.1, -0.5, 0.5, 3, 11, i, 13
19	C/C=C(\C)C(=O)OC1[C@H](OC(C)=O)C2(CO)C(CC1(C)C)C1=CCC3C4(C)CCC(O[C@@H]5O[C@H](C(=O)O)[C@@H](O[C@@H]6O[C@H](CO)[C@@H](O)[C@H](O)[C@H]6O)[C@H](O)[C@H]5O[C@H]5O[C@H](CO)[C@@H](O)[C@H](O)[C@H]5O)[C@](C)(CO)C4CCC3(C)[C@]1(C)C[C@H]2O (some centres undefined)
    -0.4, 0.8, ., ., 21, -0.4, -14
20	Cc1ccc(C(=O)C2CCN(C(=O)c3ccc(C)cc3)CC2)cc1
    0.6, 0.0, 0.2, 9, 8, 1.2, -15
21	C#CC1(O)CCC2C3CCC4=Cc5oncc5CC4(C)C3CCC21C (centres undefined)
    -3.4, ., 0.9, -5, -8, -0.4, .
22	C#C[C@]1(O)CCC2C3CCC4=Cc5oncc5CC4(C)C3CCC21C (some centres undefined)
    -0.9, -1.1, 1.4, 4, 31, -0.4, -3
23	COc1cc(C(=S)N2CCOCC2)cc(OC)c1OC
    -3.4, 20, 0.7, 8, -3, -0.2, -5
24	CCOC(=O)c1ccccc1N
    -0.5, 0.5, 1.5, 10, 5, -0.4, 1

# Next section:
25) CCN(CC)CCOC(=O)C(Cc1cccc2ccccc12)CC1CCCO1 (centres undefined)
26) CN1CCN2c3ccccc3Cc3ccccc3C2C1 (centres undefined)
27) c1cc(-c2ccncc2)ccn1
28) C/C=C/CC#N
29) COc1ccccc1N1CCN(CCCCNC(=O)c2ccc3ccccc3c2)CC1
30) C[N+]1(C)C2CC(OC(=O)C(CO)c3ccccc3)CC1C1OC12 (centres undefined)
31) OC(CCN1CCCC1)(c1ccccc1)C1CCCCC1 (centres undefined)
32) CCC1OC(=O)C(C)C(OC2C[C@@](C)(OC)C(O)C(C)O2)C(C)C(O[C@@H]2OC(C)CC(N(C)C)C2O)[C@](C)(O)CC(C)C(=NOCOCCOC)C(C)C(O)[C@]1(C)O (some centres undefined)

screen / no.	25	26	27	28	29	30	31	32
BoNT-A LC inh2	-1.0	0.0	-0.4	0.2	-0.6	-0.2	0.0	0.1
PfHsp40 rescue	0.2	0.3	-0.1	-0.4	-1.4	-0.8	0.2	0.4
TcdB GH inh	0.5	0.0	1.2	-0.9	1.0	1.1	1.0	0.6
PrPC surface inh	4	1	-3	4	-16	-5	6	2
Y pestis TopoI	-2	1	-3	0	9	-1	4	-1
BH1578 lux ind	-1.2	6.2	4.2	-0.4	i	i	-0.1	-0.2
SSB-PriA inh	-4	0	3	5	1	-3	-2	-5

33) O=C(O)[C@@H](O)[C@H](O)C(=O)O
34) C=CCc1ccc(OC)c(OC)c1
35) C#CCN(C)[C@H](C)Cc1ccccc1
36) CC(C)OC(=O)c1ccc(N)cc1
37) Cc1cc(C(=O)N[C@H](c2ccccc2)[C@@]2(C)C[C@@H]2[C@@H](C)C(=O)Nc2ccc3ccccc3c2)no1
38) CC12CCC3c4ccc(O)cc4CCC3C1CCC2=O (centres undefined)
39) CC(=O)O[C@@]1(C(C)=O)CCC2[C@H]3C=C(C)C4=CC(=O)CC[C@@]4(C)C3CC[C@]21C (some centres undefined)
40) CCCCc1oc2ccccc2c1C(=O)c1cc(I)c(OCCN(CC)CC)c(I)c1
41) COc1ccc(S(=O)(=O)Nc2ccccn2)cc1

screen / no.	33	34	35	36	37	38	39	40	41
BoNT-A LC inh2	-0.3	-1.0	-0.4	-0.5	0.2	-0.5	.	-1.5	2.1
PfHsp40 rescue	-0.6	-1.3	-1.6	-1.0	2.3	4.0	.	1.4	1.0
TcdB GH inh	1.6	-0.8	0.2	0.0	1.3	1.7	.	1.9	1.5
PrPC surface inh	-5	-5	-3	7	-3	9	-7	3	-8
Y pestis TopoI	2	0	9	7	15	2	.	14	0
BH1578 lux ind	i	-0.7	-0.2	i	-0.8	-2.8	.	i	0.0
SSB-PriA inh	-2	-11	-7	-18	-2	1	.	33	0&0

# Individual results from the results shown:
# Entry for no. 23 under SSB-PriA inh: -5
# Entry for no. 3 under SSB-PriA inh: 3
